Source: PubChem (several laboratories)
Vif A3G: HIV-1 Vif–A3G interaction blockers – biochemical, TR-FRET, GST-Vif 1-94, biotin-A3G peptide, dose response retest, primary screen (AID 1117319); 0.57% of 260,000 active; TR-FRET GST-Vif / biotin-A3G peptide binding; higher % means a stronger effect; test concentration not given here; strong numbers were not always called active; inhibition, %, or IC50 in µM where a hit was titrated;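 active = above the screen mean plus three standard deviations and confirmed in dose response; inconclusive = results disagree or hit not tested in dose response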;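 note: Vif residues 1-94 fused to GST binding biotinylated APOBEC3G peptide 110-148; 0% = full assay without inhibitor and 100% = GST in place of GST-Vif; retest series ran down from 100 µM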
rRNA inh HTS: inhibitors of bacterial rRNA selective over humanized ribosomes; E. coli WT GFP vs humanized-ribosome RFP mutants, fluorescence, 24 h; active compounds read low; DMSO median 0, no signal -100; GFP signal change (wild-type ribosome), % (concentration not given with the values); 1.6% of 350,000 active;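 active = significant combined selectivity score with lowered wild-type GFP, culture density cut under 30%, mutant RFP and density less affected; inactive = any of these conditions unmet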; note: one replicate is shown; some compounds called inactive have numbers as strong as hits
Beta cell apopt: blocks beta cell apoptosis; INS-1E cytokine-induced death, ATP luminescence, 48 h; percent of positive-control rescue, neutral wells zero; protection from apoptosis, % (no concentration beside the values); 0.8% of 300,000 active; AID 435005;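 active = all replicates at 75% or more, or half of them and the mean; inconclusive = half reach 75% but not the mean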;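 note: 0% = cytokine-treated negative control wells and 100% = positive control rescue; higher means more ATP so stronger rescue from cytokine killing; wells of about 40 µL received 100 nL stock; the first replicate is given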
Calb FLC: C. albicans growth modulation with fluconazole; growth inhibition, % (concentration not given with the values); C. albicans CaCi-2 (fluconazole-resistant clinical isolate) + fluconazole, Alamar Blue growth, 48 h; 0.57% of 300,000 active;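 active = most replicates above 75%; inconclusive = exactly half above 75%; inactive = most below 75%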;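 note: all wells also contain fluconazole at 8 µg/ml as a sub-toxic cotreatment; 0% = median of DMSO wells and 100% = median of geldanamycin control wells; wells of about 8 µL received 7.5 nL stock; the first replicate is given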
T cruzi inh: T. cruzi replication inhibition; T. cruzi beta-gal in NIH3T3, luminescence, 90 h; inhibition, % (no concentration beside the values); 1.4% of 300,000 active;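 active = mean inhibition across valid replicates above about 55%, limit read from the data; inconclusive = mean below that limit but half or more replicates reach it; inactive = mean below it, under half of replicates reach it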;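 note: signal also drops with host cell toxicity which is not excluded here; 0% = plate median of DMSO wells and 100% = zero luminescence signal; higher percent means less beta-gal luminescence so fewer parasites; stock transfer was 50 nL into about 50 µL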
AF4-AF9 inh: MLL-AF4/AF9 protein interaction inhibition; AlphaScreen, biotin-AF4 peptide binding to FLAG-AF9; inhibition, % at 10 µM; 0.47% of 350,000 active; AID 651704; P42568;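 active = every replicate reaching a set inhibition limit, whatever the replicate mean, cut at about 25% in these data; inconclusive = mean inhibition reaches that limit but some replicates miss it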;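 note: 0% = plate neutral control median and 100% = total signal loss; the record names both 10 and 1 µM as test concentration; the first replicate is given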
Target sequence (P42568 whole entry, looked up): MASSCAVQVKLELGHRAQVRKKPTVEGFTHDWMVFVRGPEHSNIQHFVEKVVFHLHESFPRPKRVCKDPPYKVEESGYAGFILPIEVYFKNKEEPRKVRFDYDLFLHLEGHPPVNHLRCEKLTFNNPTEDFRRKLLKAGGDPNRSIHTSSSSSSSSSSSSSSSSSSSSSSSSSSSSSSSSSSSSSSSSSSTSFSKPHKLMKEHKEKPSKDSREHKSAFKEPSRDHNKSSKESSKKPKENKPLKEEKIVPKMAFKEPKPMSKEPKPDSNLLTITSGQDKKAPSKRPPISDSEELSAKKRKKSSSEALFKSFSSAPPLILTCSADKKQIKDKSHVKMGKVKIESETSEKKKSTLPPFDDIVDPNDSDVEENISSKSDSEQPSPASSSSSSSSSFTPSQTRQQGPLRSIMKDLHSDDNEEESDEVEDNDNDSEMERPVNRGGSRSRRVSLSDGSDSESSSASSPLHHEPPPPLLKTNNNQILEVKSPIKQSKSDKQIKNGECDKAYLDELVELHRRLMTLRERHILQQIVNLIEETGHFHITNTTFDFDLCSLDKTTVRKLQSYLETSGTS
Bfl-1 A1 inh: inhibitors of the anti-apoptotic protein A1, read as caspase activation; 0.066% of 330,000 active; caspase activation, % (test concentration not listed); MEF A1-2A-BIM cells, Caspase-Glo 3/7 luminescence, 3 h; percent of clofoctol response, vehicle zero; AID 2462;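 active = over half of replicate activation scores above 10%, or exactly half above 10 with the replicate mean above 10; inconclusive = replicate mean below 10 yet half the replicates above 10; inactive = over half of replicates below 10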;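 note: wells of about 30 µL received 50 nL stock; many hits fall short of the cut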
RanGTP-Impb inh: disruptors of Ran-importin-beta complex formation – biochemical, FRET, CFP-Ran, YFP-importin-beta, homogeneous, primary screen; cell-free CFP-Ran/YFP-importin-beta FRET ratio; inhibition, % (test concentration not listed); 1.1% of 300,000 active;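 active = most replicates above 15%; inconclusive = exactly half above 15%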;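 note: 0% = DMSO wells and 100% = Ran loaded with GDP instead of GTP; wells of about 40 µL received 100 nL stock; the first replicate is given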
rRNA inh HTS OD600: further read-out of rRNA inh HTS, marked with its call; OD600 change, %; measured here: OD600 growth;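 optical density of the mix in the first replicate; 0 = DMSO median and -100 = no signal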
rRNA inh HTS RFP: further read-out of rRNA inh HTS, marked with its call; RFP signal change, %; measured here: RFP humanized mutant strains;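 first replicate; 0 = DMSO median and -100 = no signal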
* = called active by the depositor. This is a subset. The share of hits here may be higher or lower than overall.

Results for Cc1ccc(-n2c3c(c(=O)[nH]c2=O)C(NS(=O)(=O)c2ccc(Cl)cc2)(C(F)(F)F)C(=O)N3)cc1 (centres undefined) ?
Vif A3G: 25.5%; rRNA inh HTS: 14.8; Beta cell apopt: -6.0; Calb FLC: 2.5; T cruzi inh: -5.7; AF4-AF9 inh: -7.9; Bfl-1 A1 inh: 0.4; RanGTP-Impb inh: 2.8; rRNA inh HTS OD600: 11.9; rRNA inh HTS RFP: 0.2

How did CCC1=Nc2cc(C(=O)NCC3CCCO3)ccc2Sc2ccc(Cl)cc21 (centres undefined) do in these assays?
Vif A3G: -2.6%; rRNA inh HTS: -12.5; Beta cell apopt: 16.4; Calb FLC: 8.0; T cruzi inh: 22.5; AF4-AF9 inh: 8.3; Bfl-1 A1 inh: 0.8; RanGTP-Impb inh: -4.7; rRNA inh HTS OD600: -6.9; rRNA inh HTS RFP: 5.6

How did COc1ccc(-c2[nH]n(-c3ccc([N+](=O)[O-])cc3)c(=O)c2C=NCC2CCCO2)cc1 (centres undefined) do in these assays?
Vif A3G: 25.2%; rRNA inh HTS: 4.1; Beta cell apopt: 1.9; Calb FLC: 17.4; T cruzi inh: 8.7; AF4-AF9 inh: 0.2; Bfl-1 A1 inh: 0.2; RanGTP-Impb inh: -4.1; rRNA inh HTS OD600: 10.1; rRNA inh HTS RFP: 0.4

How did Cc1c(Cl)cccc1Nc1nc(N)nc(CN2CCc3ccccc3C2)n1 do in these assays?
Vif A3G: inconclusive; Beta cell apopt: 1.9; Calb FLC: 1.0; T cruzi inh: 1.7; Bfl-1 A1 inh: 0.0; RanGTP-Impb inh: 0.4

What do the screens show for `COc1ccc(-c2nc(CS(=O)(=O)CC(=O)NC3CCCCC3C)c(C)o2)cc1` (centres undefined)?
Vif A3G: -6.8%; rRNA inh HTS: 12.9; Beta cell apopt: -8.0; Calb FLC: -4.8; T cruzi inh: 9.6; AF4-AF9 inh: -1.2; Bfl-1 A1 inh: 0.5; RanGTP-Impb inh: 2.2; rRNA inh HTS OD600: 7.7; rRNA inh HTS RFP: 0.1

How did O=c1c2ccccc2ncn1-c1ccccc1F do in these assays?
rRNA inh HTS: 14.8; Calb FLC: -2.2; T cruzi inh: -13.8; AF4-AF9 inh: -4.1; Bfl-1 A1 inh: 0.2; RanGTP-Impb inh: 7.5; rRNA inh HTS OD600: 2.6; rRNA inh HTS RFP: 0.0

How did COc1ccc(C(=O)Nc2c(F)c(F)c(F)c(F)c2F)c(OC)c1 do in these assays?
Vif A3G: inconclusive; Beta cell apopt: 1.2; T cruzi inh: 16.5; Bfl-1 A1 inh: 1.4; RanGTP-Impb inh: 5.0

Results for CC1=NC(=O)C(N=Nc2cccc(O)c2)N1c1ccccc1 (centres undefined) ?
Vif A3G: inconclusive; Beta cell apopt: -9.3; Calb FLC: -12.8; T cruzi inh: -2.0; Bfl-1 A1 inh: -0.2; RanGTP-Impb inh: 6.3

Results for O=C(Nc1ccccc1)[C@@H]1CC=C[C@@H]2CCN(Cc3ccccc3)C(=O)[C@@H]21 ?
rRNA inh HTS: -15.1; Beta cell apopt: 1.2; Calb FLC: -8.3; T cruzi inh: -7.1; Bfl-1 A1 inh: -0.9; RanGTP-Impb inh: 0.7; rRNA inh HTS OD600: -10.2; rRNA inh HTS RFP: -10.2

How did COC(=O)c1cccc(NC(=O)CCCOc2ccccc2)c1 do in these assays?
Vif A3G: 21.5%; Beta cell apopt: -5.7; Calb FLC: inconclusive; T cruzi inh: -3.0; Bfl-1 A1 inh: -1.6; RanGTP-Impb inh: 1.2

How did CN(C(=O)CCCN1C(=O)c2ccccc2C1=O)C1CCCCC1 do in these assays?
Vif A3G: 28.8%; rRNA inh HTS: -4.0; Beta cell apopt: -5.6; AF4-AF9 inh: -2.2; Bfl-1 A1 inh: -1.5; rRNA inh HTS OD600: -1.5; rRNA inh HTS RFP: -0.4

What do the screens show for `Cc1cc(OC(C)C(=O)NCc2ccccn2)c2c(C)c(C)c(=O)oc2c1` (centres undefined)?
Vif A3G: 3.1%; rRNA inh HTS: 9.8; Beta cell apopt: 3.9; Calb FLC: 8.2; T cruzi inh: 5.2; AF4-AF9 inh: -0.9; Bfl-1 A1 inh: -0.3; RanGTP-Impb inh: 5.9; rRNA inh HTS OD600: 17.4; rRNA inh HTS RFP: -2.5

How did CSC1=NCCN1C(=O)COc1ccc2ccccc2c1 do in these assays?
Vif A3G: 11.9%; rRNA inh HTS: -4.4; Beta cell apopt: 3.8; Calb FLC: -5.8; T cruzi inh: -5.8; AF4-AF9 inh: -3.1; Bfl-1 A1 inh: -0.9; RanGTP-Impb inh: -1.1; rRNA inh HTS OD600: -4.3; rRNA inh HTS RFP: -0.4

Results for COCCNC(=O)CS(=O)(=O)Cc1nc(-c2ccc(C)cc2)oc1C ?
Vif A3G: inconclusive; rRNA inh HTS: 3.3; Beta cell apopt: -10.0; Calb FLC: -5.6; T cruzi inh: -11.8; AF4-AF9 inh: -3.5; Bfl-1 A1 inh: 0.5; RanGTP-Impb inh: inconclusive; rRNA inh HTS OD600: 7.7; rRNA inh HTS RFP: 1.1

How did O=C(NNC(=S)NC(=O)c1cccnc1)c1ccc(F)cc1 do in these assays?
rRNA inh HTS: -23.7; Beta cell apopt: -3.1; Calb FLC: -0.9; AF4-AF9 inh: -0.1; Bfl-1 A1 inh: 0.9; RanGTP-Impb inh: -3.1; rRNA inh HTS OD600: -40.8; rRNA inh HTS RFP: -3.6

Results for O=C(/C=C\c1ccccc1OC(=O)c1ccccc1F)c1cc2ccccc2o1 ?
rRNA inh HTS: -23.0*; Calb FLC: 15.7; T cruzi inh: -3.4; AF4-AF9 inh: 7.1; Bfl-1 A1 inh: -1.3; RanGTP-Impb inh: -1.3; rRNA inh HTS OD600: -12.0*; rRNA inh HTS RFP: -7.9*

Results for CCOC(=O)C1CCCN(C(=O)c2ccc(Cl)c(S(=O)(=O)N3CCCCCC3)c2)C1 (centres undefined) ?
Vif A3G: -2.7%; rRNA inh HTS: -4.0; Beta cell apopt: -0.7; Calb FLC: -10.7; T cruzi inh: 17.4; AF4-AF9 inh: 7.8; Bfl-1 A1 inh: -1.0; RanGTP-Impb inh: 0.7; rRNA inh HTS OD600: -7.3; rRNA inh HTS RFP: 3.3

How did FC(F)(F)c1cccc(Cn2cnc(NC(=S)NCCc3ccccc3)n2)c1 do in these assays?
Vif A3G: -2.6%; rRNA inh HTS: 8.9; Beta cell apopt: -8.8; Calb FLC: -5.3; T cruzi inh: -5.9; AF4-AF9 inh: -2.0; Bfl-1 A1 inh: -0.9; RanGTP-Impb inh: -2.5; rRNA inh HTS OD600: 8.7; rRNA inh HTS RFP: 0.4

Results for O=C1CN(C(=O)CNCc2ccc(Cl)cc2)c2ccccc2N1 ?
rRNA inh HTS: 6.9; Beta cell apopt: -2.8; Calb FLC: 1.0; T cruzi inh: -2.2; AF4-AF9 inh: -19.6; Bfl-1 A1 inh: 0.8; RanGTP-Impb inh: -1.8; rRNA inh HTS OD600: -1.1; rRNA inh HTS RFP: -4.5

What do the screens show for `O=C(N/C(=C/c1cccc([N+](=O)[O-])c1)C(=O)N1CCCCC1)c1ccco1`?
rRNA inh HTS: 13.3; Beta cell apopt: -6.6; Calb FLC: -0.6; T cruzi inh: -12.7; AF4-AF9 inh: 0.5; Bfl-1 A1 inh: 0.3; RanGTP-Impb inh: -0.8; rRNA inh HTS OD600: 14.0; rRNA inh HTS RFP: 4.2

How did Cc1nnn(C23C[C@@H]4C[C@@H](CC(C(=O)N5CCN(c6ccccc6)CC5)(C4)C2)C3)n1 do in these assays?
rRNA inh HTS: -31.1*; Beta cell apopt: -9.1; Calb FLC: -11.1; T cruzi inh: 13.5; AF4-AF9 inh: 0.4; Bfl-1 A1 inh: -0.2; RanGTP-Impb inh: -2.3; rRNA inh HTS OD600: -7.7*; rRNA inh HTS RFP: -2.6*

What do the screens show for `O=C(NCCc1ccccc1Cl)C1CCC(=O)N(CC2CCCCC2)C1` (centres undefined)?
rRNA inh HTS: -12.2; Beta cell apopt: -0.2; Calb FLC: 9.9; T cruzi inh: 12.5; AF4-AF9 inh: 2.4; Bfl-1 A1 inh: 0.2; RanGTP-Impb inh: 1.1; rRNA inh HTS OD600: -10.7; rRNA inh HTS RFP: 7.5

How did O=C1Nc2ccc(S(=O)(=O)N3CCCC3)c3ccc(S(=O)(=O)N4CCCC4)c1c23 do in these assays?
Vif A3G: -18.6%; Beta cell apopt: -5.2; Calb FLC: 25.9; T cruzi inh: -3.8; Bfl-1 A1 inh: -1.1; RanGTP-Impb inh: 2.8

Results for COc1ccccc1C/C(N)=N/OC(=O)COc1ccc2ccccc2c1 ?
Vif A3G: 2.1%; rRNA inh HTS: 14.1; Beta cell apopt: 0.0; Calb FLC: -1.0; T cruzi inh: 9.3; AF4-AF9 inh: -44.6; Bfl-1 A1 inh: 0.4; RanGTP-Impb inh: 7.5; rRNA inh HTS OD600: 8.7; rRNA inh HTS RFP: 3.5

Results for CN1CCCN(Cc2nc(-c3ccc(Cl)cc3)no2)CC1 ?
Vif A3G: -4.8%; rRNA inh HTS: 5.6; Beta cell apopt: -5.6; Calb FLC: -46.6; T cruzi inh: -0.1; AF4-AF9 inh: 6.6; Bfl-1 A1 inh: 0.9; RanGTP-Impb inh: 0.6; rRNA inh HTS OD600: 1.9; rRNA inh HTS RFP: 0.4

Results for C=Cc1ccc(Cn2nc(-c3ccc(C)cc3)ccc2=O)cc1 ?
Vif A3G: -6.4%; rRNA inh HTS: -7.9; Beta cell apopt: -3.0; Calb FLC: 8.6; T cruzi inh: -17.1; AF4-AF9 inh: 2.0; Bfl-1 A1 inh: -0.3; RanGTP-Impb inh: -1.2; rRNA inh HTS OD600: -40.5; rRNA inh HTS RFP: 17.9

Grouped by structure, those above with a CF3 group
Results for Cc1ccc(-n2c3c(c(=O)[nH]c2=O)C(NS(=O)(=O)c2ccc(Cl)cc2)(C(F)(F)F)C(=O)N3)cc1 (centres undefined) ?
Vif A3G: 25.5%; rRNA inh HTS: 14.8; Beta cell apopt: -6.0; Calb FLC: 2.5; T cruzi inh: -5.7; AF4-AF9 inh: -7.9; Bfl-1 A1 inh: 0.4; RanGTP-Impb inh: 2.8; rRNA inh HTS OD600: 11.9; rRNA inh HTS RFP: 0.2

How did FC(F)(F)c1cccc(Cn2cnc(NC(=S)NCCc3ccccc3)n2)c1 do in these assays?
Vif A3G: -2.6%; rRNA inh HTS: 8.9; Beta cell apopt: -8.8; Calb FLC: -5.3; T cruzi inh: -5.9; AF4-AF9 inh: -2.0; Bfl-1 A1 inh: -0.9; RanGTP-Impb inh: -2.5; rRNA inh HTS OD600: 8.7; rRNA inh HTS RFP: 0.4
